# UCH37 DUB inh – inhibitors of human UCH37 deubiquitinase, primary screen, biochemical, Ub-AMC cleavage, fluorescence. inhibition, % (test concentration not listed). purified proteasome/UCH37. Ubiquitin carboxyl-terminal hydrolase isozyme L5 (Homo sapiens), Q9Y5K5. 330,000 compounds, 0.33% hits;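 active = mean of two replicates above 20%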;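 note: 0% = compound-free wells with enzyme and 100% = wells lacking proteasome; stock transfer was 100 nL into about 20 µL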
# Target sequence (Q9Y5K5 whole entry, looked up): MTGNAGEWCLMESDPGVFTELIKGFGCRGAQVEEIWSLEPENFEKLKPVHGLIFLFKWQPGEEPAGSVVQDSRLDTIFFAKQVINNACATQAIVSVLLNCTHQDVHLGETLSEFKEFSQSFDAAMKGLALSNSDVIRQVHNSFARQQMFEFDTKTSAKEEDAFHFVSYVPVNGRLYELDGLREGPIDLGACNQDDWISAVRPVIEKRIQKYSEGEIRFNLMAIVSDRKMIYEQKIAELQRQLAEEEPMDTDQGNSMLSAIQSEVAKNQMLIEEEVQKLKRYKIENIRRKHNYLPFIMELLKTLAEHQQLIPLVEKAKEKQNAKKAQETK
#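 Reagent: Ub-AMC substrate; assay system: Proteasome-associated human UCH37 deubiquitinase; controls: no-proteasome and no-compound wells; read-out: % inhibition of Ub-AMC cleavage fluorescence; timing: 30 min preincubation with enzyme, 25 min cleavage at room temperature; signal: AMC fluorescence from Ub-AMC cleavage, excitation 355 nm, emission 460 nm; buffer or medium: Tris-HCl pH 7.4 plus ovalbumin, ATP-MgCl2, DTT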
# LANA-H2A inh – blockers of LANA interaction with H2A/H2B – biochemical, FP readout, HTS, primary screen; Protein LANA1 (Human herpesvirus 8 type P (isolate GK18)), Q9QR71; cell-free LANA-H2A/H2B peptide, fluorescence polarization; inhibition, % (concentration not given with the values); 320,000 compounds, 0.6% hits; AID 2629, 2010; in the data active = inhibition mostly above about 10%, no sharp cut-off; inactive = mostly below about 6.7%;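 note: stock transfer was 7.5 nL into about 10 µL; 0% = median of vehicle wells and 100% = median of positive control wells; one replicate is shown; the record names a cut of 25% in any replicate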
# Bfl-1 A1 inh – caspase 3/7 activation in MEF A1-2A-BIM cells, primary screen, A1 inhibitor project, cell-based, luminescence, HTS. Caspase-Glo 3/7 luminescence, 3 h; percent of clofoctol response, vehicle zero. caspase activation, % (no concentration beside the values). 330,000 compounds, 0.066% hits;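 active = over half of replicate activation scores above 10%, or exactly half above 10 with the replicate mean above 10; inconclusive = replicate mean below 10 yet half the replicates above 10; inactive = over half of replicates below 10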;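 note: wells of about 30 µL received 50 nL stock; many hits fall short of the cut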
# RanGTP-Imp inh – inhibitors of RanGTP-importin-beta interaction, primary screen, biochemical, FRET, CFP-Ran, YFP-importin-beta, homogeneous; Ran GTPase (GTP-bound) - importin-beta complex; cell-free CFP-Ran/YFP-importin-beta FRET ratio; inhibition, % (no concentration beside the values); 300,000 compounds, 1.1% hits;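 active = most replicates above 15%; inconclusive = exactly half above 15%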;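 note: 0% = DMSO wells and 100% = Ran loaded with GDP instead of GTP; wells of about 40 µL received 100 nL stock; the first replicate is given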
# Beta2AR agonist – beta2AR agonists driving receptor internalization, primary screen, cell-based, FAP fluorogen, flow cytometry. Beta-2 adrenergic receptor (Homo sapiens), P07550. Am2.2-beta2AR cells; reference of the scale not given here. response, % (no concentration beside the values). 340,000 compounds, 0.43% hits. AID 504454, 2011;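 active = response above a set limit, near 3 SD of response in nonfluorescent compounds, cut at about 42% in these data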;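 note: stock transfer was 100 nL into about 11 µL; a reference agonist was the positive control; negative values mostly stem from fluorescent compounds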
# Target sequence (P07550 whole entry, looked up): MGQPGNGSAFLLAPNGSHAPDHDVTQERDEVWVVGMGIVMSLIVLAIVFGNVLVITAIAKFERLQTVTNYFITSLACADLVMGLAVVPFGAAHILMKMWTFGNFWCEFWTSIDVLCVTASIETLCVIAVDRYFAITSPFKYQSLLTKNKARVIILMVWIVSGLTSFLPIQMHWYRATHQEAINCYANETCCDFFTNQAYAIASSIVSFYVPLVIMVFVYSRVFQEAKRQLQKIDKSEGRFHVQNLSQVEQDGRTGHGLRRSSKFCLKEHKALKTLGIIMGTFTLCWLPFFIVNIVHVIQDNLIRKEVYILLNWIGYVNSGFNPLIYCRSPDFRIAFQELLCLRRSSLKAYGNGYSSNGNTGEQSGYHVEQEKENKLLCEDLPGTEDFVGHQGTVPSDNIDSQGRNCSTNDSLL
# Calb FLC – C. albicans growth inhibition with fluconazole, primary screen, CaCi-2 strain, Alamar Blue fluorescence. 300,000 compounds, 0.57% hits. AID 1979, 2009. C. albicans CaCi-2 (fluconazole-resistant clinical isolate) + fluconazole, 48 h. growth inhibition, % (test concentration not listed);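 active = most replicates above 75%; inconclusive = exactly half above 75%; inactive = most below 75%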;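 note: all wells also contain fluconazole at 8 µg/ml as a sub-toxic cotreatment; 0% = median of DMSO wells and 100% = median of geldanamycin control wells; wells of about 8 µL received 7.5 nL stock; the first replicate is given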
# Beta cell apopt – inhibitors of cytokine-induced beta cell apoptosis, primary screen, luminescence; INS-1E cytokine-induced death, ATP luminescence, 48 h; percent of positive-control rescue, neutral wells zero; protection from apoptosis, % (no concentration beside the values); 300,000 compounds, 0.8% hits; AID 435005, 2010;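 active = all replicates at 75% or more, or half of them and the mean; inconclusive = half reach 75% but not the mean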;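 note: 0% = cytokine-treated negative control wells and 100% = positive control rescue; higher means more ATP so stronger rescue from cytokine killing; wells of about 40 µL received 100 nL stock; the first replicate is given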
# T cruzi inh – inhibitors of intracellular T. cruzi growth, primary screen, luminescence, NIH3T3 host cells. T. cruzi beta-gal in NIH3T3, 90 h. inhibition, % (concentration not given with the values). 300,000 compounds, 1.4% hits;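 active = mean inhibition across valid replicates above about 55%, limit read from the data; inconclusive = mean below that limit but half or more replicates reach it; inactive = mean below it, under half of replicates reach it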;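 note: signal also drops with host cell toxicity which is not excluded here; 0% = plate median of DMSO wells and 100% = zero luminescence signal; higher percent means less beta-gal luminescence so fewer parasites; stock transfer was 50 nL into about 50 µL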
# Numbers without * were called inactive; i = inactive; ? = inconclusive; nt = no result given.
compound,UCH37 DUB inh,LANA-H2A inh,Bfl-1 A1 inh,RanGTP-Imp inh,Beta2AR agonist,Calb FLC,Beta cell apopt,T cruzi inh
CC(C)(C)OC(=O)CNC(=O)c1[nH]cnc1C(=O)NCC(=O)OCc1ccccc1,31*,-2.0,-0.1,-1.5,15,3,-8,9
Cc1cc(C)c(S(=O)(=O)N2CCN(S(=O)(=O)N3CCOCC3)CC2)c(C)c1,-0.4,-1.3,0.9,1.1,2,1,-2,4
COc1cc(OC)cc(-c2nc3cc(C)ccc3o2)c1,-0.7,2.0,-1.6,-6.7,3,?,15,-9
O=C(Cc1csc(N2CCOCC2)n1)N/N=C/c1ccccc1C(=O)O,nt,0.8,-0.9,-3.8,2,3,-3,-4
O=C(NCc1cccnc1)c1ccc(Br)o1,-0.1,1.0,0.1,1.6,-6,11,nt,-18
CCN(c1ccccc1)S(=O)(=O)c1ccc(Cl)c(C(=O)N2CCCC2)c1,-2.5,nt,-0.3,nt,2,nt,-3,nt
COc1ccc(C2N=C(Nc3ccc(C)cc3)Nc3nc(C)cc(=O)n32)cc1 (stereo not given),-2.7,0.6,0.7,-0.7,-3,110*,-4,-4
O=C(COc1ccccc1)N(Cc1nnc(-c2ccccc2Cl)o1)C1CC1,2.3,0.0,-0.8,-3.5,-5,-12,nt,2
O=C(CCCN1C(=O)c2ccccc2C1=O)N1CCC(c2ccccc2)C1 (stereo not given),-0.1,2.0,0.0,-0.6,-3,13,-2,-8
O=[N+]([O-])c1ccc(/C=N/Nc2nc(-c3ccccc3)c3cc(Br)ccc3n2)o1,nt,2.8,0.0,3.1,-37,7,0,?
CCOc1ccc(S(=O)(=O)N2CCC(C(=O)NCc3cccnc3)CC2)cc1C,4.1,3.3,0.0,0.5,-16,7,-2,-18
CCOc1ccc(CCNC(=O)CSc2cc(=O)n(C)c3cc(Cl)ccc23)cc1OCC,-2.7,-1.2,0.1,3.8,-32,-7,-8,27
C(=N\Nc1nc(Nc2ccccc2)nc(N2CCCCC2)n1)/c1ccco1,nt,-3.4,-0.1,4.9,nt,25,18,16
Cn1c(COc2ccccc2)nnc1SCC(=O)Nc1ccc(N2CCOCC2)cc1,-0.1,-4.8,-0.2,-4.5,2,-9,1,-3
CCn1cc(/C=C(\NC(=O)c2ccccc2OC)C(=O)NCCCn2ccnc2)c2ccccc21,7.8,-1.3,0.5,2.5,8,-2,-3,-3
O=c1c2ccccc2nc2ccccn12,i,-3.0,-1.5,-1.2,-8,-14,0,-12
CCOC(=O)c1ccccc1NC1c2ccccc2C(=O)N1c1cc(C)ccn1 (stereo not given),-16,-9.8,nt,-1.8,15,23,-2,27
Cc1cc(O)c(C2(O)C(=O)Nc3ccccc32)cc1C (stereo not given),6.7,-2.1,-0.3,4.1,-10,0,4,-2
Cc1cccc(CSCCNC(=O)CCSc2ccccc2)c1,1.3,-2.2,0.2,-1.1,-10,-8,-4,-16
Cc1ccsc1C(=O)OCC(=O)NCCc1ccccc1,-3.5,-3.5,-1.6,nt,2,nt,-2,nt

# Gathered by group: the compounds so far containing two or more sulfur atoms.
compound,UCH37 DUB inh,LANA-H2A inh,Bfl-1 A1 inh,RanGTP-Imp inh,Beta2AR agonist,Calb FLC,Beta cell apopt,T cruzi inh
Cc1cc(C)c(S(=O)(=O)N2CCN(S(=O)(=O)N3CCOCC3)CC2)c(C)c1,-0.4,-1.3,0.9,1.1,2,1,-2,4
Cc1cccc(CSCCNC(=O)CCSc2ccccc2)c1,1.3,-2.2,0.2,-1.1,-10,-8,-4,-16

# The list goes on:
compound,UCH37 DUB inh,LANA-H2A inh,Bfl-1 A1 inh,RanGTP-Imp inh,Beta2AR agonist,Calb FLC,Beta cell apopt,T cruzi inh
COc1cccc(OCC(=O)NNC(=S)Nc2ccc(Cl)cc2Cl)c1,0.8,-3.0,-0.3,-3.3,8,68,-2,8
Cc1ccc(OCc2nnc(SC(C)C(=O)O)n2Cc2ccccc2)cc1 (stereo not given),3.9,11*,1.9,0.0,-8,1,-3,-3
CC(=O)Nc1ccc(NC(=O)c2ccccc2S(=O)(=O)c2ccccc2[N+](=O)[O-])cc1,3.6,2.1,0.3,-1.6,-4,-8,-2,-1
COc1ccc(CNC(=O)CSc2nnc(NC(=O)C3CC3)s2)cc1,-0.3,-8.0,-0.5,6.4,-10,3,1,-7
O=C1/C(=C\c2cccnc2)CN(Cc2ccccc2)C/C1=C\c1cccnc1,3.2,2.7,0.0,-1.8,nt,6,84*,5
CN(CC1CCCO1)S(=O)(=O)c1ccc(C(=O)Nc2ccc([N+](=O)[O-])cc2)cc1 (stereo not given),7.1,-2.2,-0.1,3.3,4,0,5,1
COc1ccc(CO[C@@H]2O[C@H](CO)[C@@H](O)[C@H](O)[C@H]2NC(C)=O)cc1OC,-1.5,2.9,0.6,-2.3,-1,1,-9,-14
CCC(=O)N(CCc1ccccc1)Cc1cc2cccc(C)c2[nH]c1=O,-4.5,0.7,-0.5,1.4,-6,18,6,3
Cc1c(C(=O)N2CCN(CCc3ccccn3)CC2)oc2ccc(Cl)cc12,3.5,-11,0.3,-0.8,-1,6,-4,12
CC1CCCC(NS(=O)(=O)c2cccc3nsnc23)C1C (stereo not given),6.3,-6.1,0.5,-2.5,4,-7,-14,-15
CNC(=O)c1cc2ncc(C(F)(F)F)cc2s1,-2.6,4.7,0.0,-4.9,-14,8,-1,10
C/C(=N\NC(=S)Nc1ccc(C)cc1)c1cccc(N)c1,nt,3.1,-0.5,1.1,0,43,16,27
Cn1nnnc1SCC(=O)NCCc1ccc(Cl)cc1,0.9,1.7,-0.1,-4.2,-6,2,-12,-4
O=C(COC(=O)c1ccc(F)c([N+](=O)[O-])c1)NC(=O)NCc1ccccc1,4.2,-1.8,0.2,nt,36,nt,-8,nt
COc1ccccc1N(C(=O)c1snc(C(N)=O)c1N)C(C(=O)NCc1ccccc1)c1ccc(O)cc1 (stereo not given),-83,nt,nt,1.6,-1,7,nt,-6
NC(=O)NC(=O)COC(=O)CCCSc1nc2ccccc2s1,1.4,-1.0,-2.2,-0.4,0,5,-3,-4
COc1ccc(-c2cnc(SCCNC(=O)c3ccc4c(c3)OCO4)[nH]2)cc1,-0.2,-3.5,1.3,5.3,0,-13,nt,-5
COc1ccc(CCNC(=O)C2CCCN2C(=O)Nc2ccc(C)cc2)cc1OC (stereo not given),-0.5,-1.9,0.1,2.1,-3,-2,-6,4
CCOC(=O)c1nc(N2CCN(C(=O)OCC)CC2)c2c3c(sc2n1)CCCC3,-105,-1.3,0.1,-2.8,-6,19,3,2
COC(=O)c1cc(NC(=O)C2CC=CCC2C(=O)O)cc(C(=O)OC)c1 (stereo not given),-1.0,-2.1,1.0,1.4,3,-6,-1,-10
COc1cc2c(cc1OC)C(c1cc3cc(C)ccc3[nH]c1=O)N(C(=O)c1ccco1)CC2 (stereo not given),5.0,-4.3,0.4,-3.7,2,15,-1,14
O=C1CC(N2CCN(c3ccccc3)CC2)C(=O)N1Cc1ccc(Cl)cc1 (stereo not given),-1.6,-2.3,0.3,2.0,9,22,1,-2
COC(=O)c1c(C)oc(C)c1S(=O)(=O)NCC1CC1,4.3,2.3,-1.3,?,3,-3,-9,-6
c1ccc2c(c1)[nH]c1c(N3CCOCC3)ncnc12,-11,-0.3,-0.2,0.8,-1,7,3,-24
C=C(C)CSC1=C(C#N)C(c2ccsc2)CC(=O)N1 (stereo not given),-0.7,4.2,0.2,nt,8,20,-2,5
CC(C)C(NC(=S)Nc1ccccc1)C(=O)O (stereo not given),0.9,4.5,-1.2,1.6,5,-9,1,-3
CCc1cccc(CC)c1NC(=S)NCCc1ccc(O)c(O)c1,2.9,2.8,0.2,2.3,2,-3,3,11
C/C(CC(=O)NC12CC3CC(CC(C3)C1)C2)=N\NC(=O)Cc1cccs1,nt,0.1,-0.2,0.1,-4,?,-1,12
CC(C)CC(OC(=O)c1ccco1)C(=O)NC1CCCCC1 (stereo not given),1.7,-6.4,0.0,-4.2,-4,-26,-2,-5
Cc1c(O)ccc2c(=O)c(Oc3ccccc3)coc12,-1.7,-1.3,0.1,1.7,-5,-2,-12,-16
O=C1CC(c2ccco2)Cc2nc(Nc3nc(-c4ccccc4)c4ccccc4n3)ncc21 (stereo not given),nt,-2.8,-0.1,5.6,-10,11,nt,-12
CCN1CCN(S(=O)(=O)c2cccc3nsnc23)CC1,2.1,6.4,-0.1,3.4,11,-4,-4,-10
Cc1ccc(-n2ccnc(SCC(=O)NC3CCCC3)c2=O)cc1F,-14,-1.0,0.9,-0.8,0,2,-14,1
Cc1noc(C)c1NC(=O)Nc1ccc2c(c1)C(=O)N([C@H](C)CO)C[C@H](C)[C@@H](CN(C)S(=O)(=O)c1ccc(F)cc1)O2,4.8,-1.1,-0.2,nt,6,nt,3,nt
CC(C)(C)OC(=O)N1CCN(C(=O)c2[nH]cnc2C(=O)Nc2ccc(Cl)cc2)CC1,1.7,2.5,0.2,nt,-2,nt,-11,nt
CN(C)c1nc(Nc2ccc(Cl)cc2)nc(OCC#N)n1,3.4,1.5,0.7,0.6,7,-12,-3,-3
Cc1nc2cc(-c3cccs3)[nH]n2c(=O)c1C,-17,3.0,-2.3,0.5,-4,3,6,6
OC[C@H]1O[C@@H](n2cnc3c(NC4CCCC4)nc(Cl)nc32)[C@H](O)[C@@H]1O,-0.1,-0.9,-0.2,nt,-5,nt,1,nt
Cc1cc(C)c(C(=O)COC(=O)Cn2c(C)csc2=O)cc1C,-1.4,5.4,1.3,-0.3,7,7,-1,4
CCC(=O)Nc1ccc(Oc2ccc3c(c2)C(=O)NC3=O)cc1,2.7,5.4,0.2,-9.3,-4,-8,-1,-17
Cc1cc(C)cc(C(=O)NCC(=O)OCC(=O)c2cc(C)n(CC(F)(F)F)c2C)c1,-0.3,-5.5,-0.3,-0.1,-1,-5,-6,-2
COc1ccccc1N(C)S(=O)(=O)c1ccc(C)c(C(=O)Nc2nccs2)c1,-1.2,-3.9,0.6,nt,2,-3,-3,3

# Screening results: PubChem BioAssay, several laboratories
